Assay outcomes from PubChem.
HSD17B inhib = qHTS Assay for Inhibitors of HSD17B4, hydroxysteroid (17-beta) dehydrogenase 4; AID 893, 2007; recombinant HSD17B10, NADH fluorescence kinetic; many of its hits are not listed in these tables; Potency, µM (highest dose often 57.1 µM), without a hit: top-dose activity change, negative = inhibition, actives largely listed as inhibitors; actives 7.6% (n = 75,000); 3-hydroxyacyl-CoA dehydrogenase type-2 (Homo sapiens), Q99714; active = well fitted inhibition curve with a large enough effect; inconclusive = small, poorly fitted or top-dose-only effect; inactive = no such curve, though single readings can be large or run the other way;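 note: the protocol describes HADH2 (HSD17B10) and not the HSD17B4 of the title; nearly all actives have a fitted effect of over 70% in size; most hits overshoot -100% by far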
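20 nM HADH2, pH 9.0 Tris/Tween; cpd preinc 15 min RT; start w/ 1 mM NAD+ + 90 uM b-hydroxybutyryl-CoA; kinetic fluor ex360/em450 q30s x 4 min; delta last-first.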
* hit, by the source's call; ? = inconclusive; [ ] = dose if it differs, or a comment. % is set by controls: 0 for no effect and ±100 for the full control effect; potency is the fitted concentration of half-maximal effect. The list is partial; count on the stated rates, not on these rows.

structure | HSD17B inhib
CCc1ccc2[nH]c(=O)c(CN(CCN(C)C)C(=O)Nc3ccccc3OC)cc2c1 | -13%
Cc1csc2ncc(C(=O)Nc3ccc(C(F)(F)F)cc3)c(=O)n12 | 20µM*
CCOc1ccc(-n2c(=O)cc(N3CCN(c4ccccc4)CC3)[nH]c2=O)cc1 | -2%
O=C(CSc1nnc2sc3ccccc3n12)NCc1ccco1 | 11%
Cc1[nH]c2ccc(-c3nnc(SCC(=O)c4ccccc4F)o3)cc2c1C | -12%
O=C(CCN1C(=O)c2ccccc2C1=O)NC1=NCCS1 | 9%
O=C(CCNS(=O)(=O)c1cccc2nonc12)N1CCN(c2cccc(Cl)c2)CC1 | -3%
CCOC(=O)C1CCCN(C(=O)C2CCCN(S(C)(=O)=O)C2)C1 (stereo not drawn) | 9%
COc1ccccc1CNc1n[nH]c(NCc2ccccc2OC)n1 | ?
O=C(NCC1CCCO1)c1cccc(-n2cnnn2)c1 (stereo not drawn) | 5%
CC(C)CN1CCC2(CC1)CCN(C(=O)c1csnn1)CC2 | -4%
Cc1cc2oc(=O)cc(CN3CCN(C/C=C/c4ccccc4)CC3)c2cc1O | -3%
O=P(O)(CCCP(=O)(O)CCc1ccccc1)CCc1ccccc1 | 3%
COC(=O)c1[nH]c2ccc(C)cc2c1NC(=O)CN1CCCC(C)(C)C1 | ?
CCOc1ccc(C2/C(=C(\O)c3cccc(OC)c3)C(=O)C(=O)N2c2cc(C)on2)cc1OC (stereo not drawn) | 0%
N#CC1=C(N)Oc2n[nH]c(-c3ccc(F)cc3)c2C1c1cccc(OC(=O)N2CCOCC2)c1 (stereo not drawn) | -18%
COc1ccccc1CNC(=O)c1ccc(CS(=O)(=O)c2ccccc2OC)o1 | -4%
Cc1c(NC(=O)CSc2nc3c(cnn3-c3ccccc3)c(=O)[nH]2)c(=O)n(-c2ccccc2)n1C | 5%
Cc1c(C(=O)O)oc2ccc(S(=O)(=O)NCc3ccc(F)cc3)cc12 | 2%
CCOC(=O)C(C)n1cnc2c(oc3ccccc32)c1=O (stereo not drawn) | 5%
COC(=O)C1(Cc2ccccc2)C=C2C(=C(C(C)C)C(=O)C2C)CN1 (stereo not drawn) | -2%
CCCOC(=O)CCc1n[nH]c(=O)[nH]c1=O | 5%
Cc1noc(C)c1COC(=O)COc1ccc2c(C)cc(=O)oc2c1 | 191%[activator]
Cc1cnc(CNc2nc(-c3ccccc3C(F)(F)F)nc3ccccc23)cn1 | 8%
CCOC(=O)N1CCC(N2C(=O)c3ccccc3C2Nc2ccc(Cl)cn2)CC1 (stereo not drawn) | -5%
O=C(COC(=O)C1(c2ccccc2F)CCCC1)N1CCN(C(=O)c2ccco2)CC1 | 12%
COC(=O)c1ccccc1NC(=O)c1nc2nc(C)cc(C(F)F)n2n1 | 34%[activator]
O=C(CSc1nnc(-c2ccco2)n1Cc1ccccc1)c1ccccc1 | ?
COC(=O)c1ccc(NC(=O)CSc2nnc(CNc3ccc(F)cc3)n2C)cc1 | -2%
CCOC(=O)c1ccc(S(=O)(=O)N2CCN(CCC#N)CC2)cc1 | 2%
CCOC(=O)CNC(=O)CSc1nnc(-c2ccco2)n1N | 7%
Cc1ccc2oc(C(=O)NCc3ccc4c(c3)OCO4)c(C)c2c1 | -10%
CCOc1ccc(C(C)C)cc1S(=O)(=O)Nc1ccc(Cl)cn1 | 0%
CN(C)c1ccc(N=Nc2cccc3ccoc23)cc1 | -8%[11.4 µM]
CCN(CC)C(=O)C1CCN(S(=O)(=O)c2ccc3oc4ccccc4c3c2)CC1 | -1%
COc1ccc(-n2c(Cc3cccn3C)nnc2SCC(=O)Nc2ccc(Cl)cc2)cc1 | -10%
COc1ccc(S(=O)(=O)N(C)CC(=O)Nc2ccccc2OC)cc1C | 1%
CCN(CC)C(=O)CSc1nc2ncccc2[nH]1 | 3%
Cc1c(NC(=O)c2cnn3cccnc23)c(=O)n(-c2ccccc2)n1C | -2%
CC(=O)Nc1ccc(NC(=O)c2oc3cc(C)c(C)cc3c2C)cc1 | ?
CCOC(=O)C1CCCN(C(=O)Cc2c(C(=O)O)[nH]c3ccccc23)C1 (stereo not drawn) | -27%
Cc1nc2ccccc2c(=O)n1NC(=O)COc1ccccc1 | -5%
Cc1nnc(NCCN2CCOCC2)[nH]c1=O | 11%
c1cncc(CNc2ncn[nH]2)c1 | 2%[11.4 µM]
Cc1cc2n(n1)C(c1ccsc1)Nc1ccccc1-2 (stereo not drawn) | 40µM*
COc1cc(Cl)c(S(=O)(=O)NCCCN2CCOCC2)cc1Cl | -3%
CCCCOc1ccc(/C=c2\sc3ncnn3c2=O)cc1 | -1%
CCOC(=O)c1c(C)[nH]c(C(=O)OCC(=O)N2c3ccccc3CC2C)c1C (stereo not drawn) | -8%
CS(=O)(=O)N1CCCC(C(=O)NCc2ccc(F)cc2Cl)C1 (stereo not drawn) | 2%
COc1ccc2c(c1)-c1ccccc1S(=O)(=O)N2C(C)=O | 32µM*
O=C(O)C1(O)C[C@H](O)C(O)[C@@H](O)C1 (stereo partly drawn) | 22%
COc1ccccc1N1CCN(CC(O)c2ccc3cc[nH]c3c2)CC1 (stereo not drawn) | 5%
O=C(O)/C=C(/C(=O)O)[C@]12CCN3CC4=CCO[C@@H]5CC(=O)N[C@@H]1[C@H]5[C@H]4C[C@H]32 | 1%[11.4 µM]
COc1ccc(C(=O)Nc2cc(OC)cc(OC)c2)cc1 | 0%
O=C(CSc1nnnn1-c1ccc2c(c1)OCO2)NCc1ccccc1 | 6%
FC(F)(F)c1ccccc1Cl | -2%
COC(=O)CN(c1c(C)cccc1C)S(C)(=O)=O | 9%
CC(C)CCOc1ccc(C(=O)O)cc1 | 4%
COC(=O)C1CCCN1C(=O)C1CCCN1C(=O)CNC(=O)OCc1ccccc1 (stereo not drawn) | 1%
CC(=O)Nc1ccc(S(=O)(=O)N2CCCCC2c2cccnc2)cc1 (stereo not drawn) | 5%

Continuation:
structure | HSD17B inhib
Cc1ccc2nc(-c3ccccn3)oc2c1 | 25µM*
O=C(C1CC2CCC1C2)N1CCN(Cc2ccc3c(c2)OCO3)CC1 (stereo not drawn) | 5%
COCC(=O)Nc1ccccc1NC(C)=O | 4%
C(=N\n1cnnc1)/c1ccc(N2CCOCC2)cc1 | ?
O=C1CC(C(=O)Nc2ccccc2)N=C(N2CCCCC2)N1 (stereo not drawn) | 0%
COc1cccc(Oc2ccc(N)cc2)c1 | -12%
Cc1nn(C(=O)C(C)N2C(=O)c3ccccc3C2=O)c(C)c1Br (stereo not drawn) | -2%
Cn1c(C(=O)NCCCN2CCN(c3ccccc3F)CC2)cc2c(=O)n(C)c3ccccc3c21 | ?
CCC(CC)C(=O)Nc1cccc(C(=O)Nc2ccc3c(c2)OCO3)c1 | -6%
COC(=O)c1cc(Br)c(=O)n(CCC2=CCCCC2)c1 | -3%
CCn1cnc2sc(-c3ccccc3)cc2c1=O | -19%
CCOC(=O)CSc1nccc(N(C)C)c1C#N | 0%
CC(=O)Nc1cc(C(F)(F)F)ccc1N1CCOCC1 | 9%
COc1ccc(CC(=O)N2CCCc3ccccc32)cc1OC | 0%
O=C(NCc1cccnc1)C1CC(=O)N(c2ccc(Cl)cc2)C1 (stereo not drawn) | 0%
CC(=O)Cc1nsc(NC(=O)c2ccc(COc3ccccc3)o2)n1 | 32µM*
Cc1cc2ccccc2n1CCNC(=O)C(C)C | 5%
Cn1c(NCc2ccco2)nc2c1c(=O)n(Cc1ccc(Cl)cc1Cl)c(=O)n2C | -4%
Cc1cc(C(=O)NCCC2=CCCCC2)c(C)o1 | -8%
Cn1c(=O)c(=O)n(C)c2cc(S(=O)(=O)NCCc3ccccc3)ccc21 | ?
NC[C@H]1O[C@@H](n2cnc3c(=O)[nH]c(N)nc32)[C@@H](O)[C@@H]1O | 2%[11.4 µM]
COc1ccc(-c2c3c(=O)n(C)c(=O)n(C)c3cn2C2CCCCC2)cc1 | 25µM*
CSCCC(NC(=O)c1cc(CC(C)C)oc1C)C(=O)O (stereo not drawn) | -13%
Cc1ccc(OCC(O)CN2CCN(Cc3ccc4c(c3)OCO4)CC2)c(C)c1 (stereo not drawn) | -7%
COc1ccc(OC)c(CN2CCN(C(=O)c3cccs3)CC2)c1 | 7%
Oc1ccc(-c2nc3cnccn3c2Nc2ccc3c(c2)OCCO3)cc1 | 7%
Nc1c(C(=O)N2CCOCC2)sc(=S)n1-c1ccccc1 | -23%
OCCSc1nncn1/N=C/c1c[nH]c2ccccc12 | 1%
CN1CCN(c2ccnc(-c3cccc(NS(C)(=O)=O)c3)n2)CC1 | -14%
Cc1ccc(N=Nc2c(O)ccc3cc(S(=O)(=O)O)ccc23)cc1 | -8%[11.4 µM]
Cc1ccc(-c2csc3nnc(SCC(=O)Nc4nsc(-c5ccccc5)n4)n23)cc1 | -12%
COc1ccc(S(=O)(=O)Nc2ccc3c(c2)OCO3)cc1OC | -11%
Cc1cc(C)nc(NC(=O)CN2C(=O)c3ccccc3C2=O)n1 | -11%
CSc1nc(-c2ccccc2)nc2[nH]ccc(=O)c12 | -9%
CN1C(=O)c2ccccc2C(C(=O)NCCCN2CCCC2)C1c1c[nH]c2ccccc12 (stereo not drawn) | -5%
C#CC(C)(C)NC(=O)c1ccccc1OC | -1%

An excerpt of these results, with each value named:
Molecule: Oc1ccc(-c2nc3cnccn3c2Nc2ccc3c(c2)OCCO3)cc1
  HSD17B inhib: 7%

Molecule: Nc1c(C(=O)N2CCOCC2)sc(=S)n1-c1ccccc1
  HSD17B inhib: -23%

Molecule: OCCSc1nncn1/N=C/c1c[nH]c2ccccc12
  HSD17B inhib: 1%

Molecule: CN1CCN(c2ccnc(-c3cccc(NS(C)(=O)=O)c3)n2)CC1
  HSD17B inhib: -14%

Continuation.
structure | HSD17B inhib
COc1ccc(S(=O)(=O)N(C)CC(=O)NC2CCCC2)cc1Cl | -16%
Cc1ccc(OCC(=O)Nc2cc(-c3nn4c(C)nnc4s3)ccc2C)cc1 | 7%
OC(COc1cccc(OCC(O)CN2CCOCC2)c1)CN1CCOCC1 (stereo not drawn) | 10%
O=C1CCC(=O)N1CN(C(=O)c1ccco1)c1ccccc1 | 11%
CC(C)C(=O)Nc1ccc(Nc2ccccc2)cc1 | 4%
O=C1CC(NCc2ccc3c(c2)OCO3)C(=O)N1CCc1ccccc1 (stereo not drawn) | 8%
CC(C)COc1ccc(C(=O)NCc2ccco2)cc1 | -7%
CN(C)c1ccc(C2=NOC(CN3C(=O)c4ccccc4S3(=O)=O)C2)cc1 (stereo not drawn) | 42%[activator]
COc1cccc(OCCn2ccnc2)c1 | 10%
O=C(O)Cn1cc(C(=O)C2CC2)c2ccccc21 | 13%
O=C(Cc1c(F)cccc1Cl)Nc1ccon1 | -4%
CC1(C)Oc2ccc(C(=O)NC3CC3)cc2N(CC(=O)N2CCOCC2)C1=O | 4%
CC1(C)C(=O)Nc2ccccc2N1C(=O)COC(=O)Cn1cnc2ccccc2c1=O | -9%
O=S(=O)(c1ccc2ccccc2c1)N1CCN(S(=O)(=O)c2ccc3ccccc3c2)CC1 | 7%[11.4 µM]
CCN=c1sc(C(=O)NCCc2ccccc2)cc(=O)n1CC | -4%
COC(=O)C1=C(C)NC(C)=C([N+](=O)[O-])[C@H]1c1ccccc1C(F)(F)F | -4%
CCN(CC)c1cccc(O)c1 | 4%
CNC(=O)C1(C)C=CC2(CCCCC2)N1C(C)=O (stereo not drawn) | 6%
Cc1cccc(-c2c3c(=O)n(C)c(=O)n(C)c3cn2-c2ccccc2O)c1 | -28%
Cn1cccc1Cc1nnc(SCC(=O)N2CCCC2)n1CCc1ccccc1 | 9%
CCN(CC)CCn1c(SCC(=O)NCc2ccco2)nc2c(sc3ccccc32)c1=O | 32µM*
c1ccc(Nc2nc(N3CCCCC3)nc(N3CCNCC3)n2)cc1 | -2%
COc1ccc(NC(=O)c2cncc(Br)c2)c(S(=O)(=O)N2CCOCC2)c1 | 9%
CCn1c(=O)c2cc(C(=O)NCCN3CCOCC3)sc2c2ccccc21 | 32µM*
CC1CCCCN1S(=O)(=O)c1ccc(NC(=O)c2cccs2)cc1 (stereo not drawn) | -16%
CCC(=O)Nc1ccc(N2CCN(Cc3ccccc3F)CC2)cc1 | 5%
CCn1c(=O)c(C(=O)Nc2cccnc2)c(O)c2ccccc21 | 3%
CN1C(=O)c2ccc(C(=O)NC3CCCCC3)cc2C1=O | 8%
C[C@H]1CC[C@H](C(=O)O)N[C@@H]1c1ccc(C#Cc2ccccc2)cc1 | -1%[11.4 µM]
CCC(CCC(C)C1CCC2C3CC=C4CC(O)CC[C@@]4(C)C3CC[C@@]12C)C(C)C (stereo partly drawn) | 5%
CC1CCCCN1C(=O)CSc1nc2cc3c(cc2c(=O)n1Cc1ccc2c(c1)OCO2)OCO3 (stereo not drawn) | 9%
CCCn1c(CNC(=O)c2ccccc2)nc2ccccc21 | 9%
O=C(C1CCC1)N1CCc2cc(S(=O)(=O)NCc3ccco3)ccc21 | 12%
CCOc1ccc(C(=O)CCN2CCCCC2)cc1 | -35%
COc1ccc(CCNC(=O)Cn2cnc3c2c(=O)n(C)c(=O)n3C)cc1OC | 7%
Cc1ccc2cc(C(c3nnnn3C(C)(C)C)N3CCCC3)c(=O)[nH]c2c1C (stereo not drawn) | -9%
CC(=O)Nc1cc(C(=O)c2ccccc2)ccc1N1CCOCC1 | 6%
